Lassa entry inh: inhibitors of Lassa virus binding or cell entry; AID 540256; hit rate 1.2% among 300,000; Potency, µM (doses to about 37.9 µM), for inactives: at the top dose activity change, negative = inhibition, hits mostly inhibitors; Lassa virus pseudotype entry inhibition, cell reporter; control for the full effect not named in the record; active means well fitted inhibition curve with a large enough effect; inconclusive means small, poorly fitted or top-dose-only effect, or effect the other way; inactive means flat fitted curve, though single readings scatter; tested in HEK293 cells; also: % is scaled to controls: 0 for no effect and ±100 for the full control effect; nearly all actives have a fitted effect of over 50% in size; luciferase read-out
Cruzain inh Det: cruzain (T. cruzi) inhibition with detergent; P25779; purified cruzain, Z-FR-AMC fluorescence, 0.01% Triton; Potency, µM, for inactives: max response, negative = inhibition, usual class: inhibitors; hit rate 0.43% among 200,000; AID 1478; active = well fitted curve in the direction sought with a large enough effect; inconclusive = small, poorly fitted or top-dose-only effect, or another doubt; inactive = no such curve, though single readings can be large; an effect the other way counts as inactive or inconclusive;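 also: plate controls were neutral wells for no effect and buffer without enzyme for full effect; nearly all actives have a fitted effect of over 40% in size; top concentration of the series not given in the record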
Target sequence (P25779 123-467 limits assumed): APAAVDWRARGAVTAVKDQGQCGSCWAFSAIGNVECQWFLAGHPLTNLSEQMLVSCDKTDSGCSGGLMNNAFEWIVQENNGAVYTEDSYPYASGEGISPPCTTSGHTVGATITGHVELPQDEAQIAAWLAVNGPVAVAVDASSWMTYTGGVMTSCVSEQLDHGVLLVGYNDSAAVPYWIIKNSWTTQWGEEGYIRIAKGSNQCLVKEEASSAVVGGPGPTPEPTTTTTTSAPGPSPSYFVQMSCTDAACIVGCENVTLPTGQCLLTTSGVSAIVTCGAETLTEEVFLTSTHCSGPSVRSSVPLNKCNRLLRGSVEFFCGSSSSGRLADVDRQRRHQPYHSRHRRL
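Steps: dispense cruzain (1.5 nM final) in acetate buffer pH 5.5 with DTT and 0.01% Triton X-100; pin-transfer compounds; incubate 15 min RT; add Z-FR-AMC (2 uM final); read fluorescence every 30 s, using the 60 s intensity change.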
Cruzain noTriton: cruzain (T. cruzi) inhibition without detergent; P25779; purified cruzain, Z-FR-AMC fluorescence, no detergent; Potency, µM, for inactives: max response, negative = inhibition, usual class: inhibitors; hit rate 2.3% among 200,000; AID 1476; active = well fitted curve in the direction sought with a large enough effect; inconclusive = small, poorly fitted or top-dose-only effect, or another doubt; inactive = no such curve, though single readings can be large; an effect the other way counts as inactive or inconclusive;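 also: plate controls were enzyme without inhibitor for no effect and buffer without enzyme for full effect; nearly all actives have a fitted effect of over 40% in size; top concentration of the series not given in the record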
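Detergent-free condition (0.00005% Triton X-100) in acetate buffer pH 5.5 with DTT. 1.5 nM enzyme and compound were pre-mixed 15 min, then 2 uM Z-FR-AMC substrate added; reaction progress from fluorescence change between first and third reads (60 s).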
StopGo reporter: FMDV 2A StopGo reporter, luciferase signal; human cells with a luciferase reporter of 2A StopGo recoding; control for the full effect not named in the record; Potency, µM (top dose mostly 57.9 µM), without a hit: top-dose signal change, negative = less light; hit rate 1.2% among 410,000; AID 1159524; active = well fitted falling curve with a large enough effect; inconclusive = small, poorly fitted or top-dose-only effect; inactive = no such curve, though single readings can be large or run the other way; tested in HEK293T cells; also: % is scaled to controls: 0 for no effect and ±100 for the full control effect; nearly all actives have a fitted effect of over 45% in size; luciferase light after 4 h
NS1 inh: influenza NS1 inhibition. Potency, µM (series often up to 46.1 µM), for inactives: top-dose activity, positive = more growth. hit rate 0.4% among 270,000. S. cerevisiae slowed by influenza A NS1, growth recovery by OD600. AID 2326; also: actives are rising curves; nearly all actives have a fitted effect of over 50% in size
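S. cerevisiae expressing influenza A NS1, grown in glucose, washed, then diluted 1:100 into pH 6.0 -URA galactose medium with 23 nl compound. Growth recovery read as OD600; NS1-free strain serves as control.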
RE007 growth inh: less growth of the S. pombe RE007 Vpr strain. Potency, µM (series often up to 92.2 µM), inactives show at the highest dose activity change, negative = less growth. hit rate 0.21% among 360,000. S. pombe RE007 Vpr strain, BacTiter-Glo ATP luminescence, 24 h; control for the full effect not named in the record; active = well fitted falling curve with a large enough effect; inconclusive = small, poorly fitted or top-dose-only effect; inactive = no such curve, though single readings can be large or run the other way;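 also: % is scaled to controls: 0 for no effect and ±100 for the full control effect; nearly all actives have a fitted effect of over 50% in size; the assay follows cell death caused by Vpr and the record does not say whether a fall means rescue or toxicity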
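Fission yeast RE007 carrying one integrated HIV-1 vpr copy, seeded at OD 0.01 in PMG+AL medium with 23 nL pinned compound. Grown 24 h at 30 degrees; viability read by BacTiter-Glo luminescence after 5 min.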
Marburg entry inh: Marburg virus entry inhibition. Potency, µM (top dose mostly 37.8 µM), for the others: at the highest dose activity change, negative = inhibition, actives largely listed as inhibitors. hit rate 1.8% among 300,000. Marburg virus pseudotyped entry inhibition, cell reporter; control for the full effect not named in the record; about a third of the inactives were read at about 46 µM; active = well fitted inhibition curve with a large enough effect; inconclusive = small, poorly fitted or top-dose-only effect, or effect the other way; inactive = flat fitted curve, though single readings scatter; tested in HEK293 cells; about a fifth of its hits are not listed in these tables; also: % is scaled to controls: 0 for no effect and ±100 for the full control effect; luciferase read-out
SARS PLP yeast: blocks SARS-CoV papain-like protease in a yeast assay | Potency, µM (doses to about 32.9 µM), for inactives: at the top dose activity, positive = growth rescue | AID 485353 | hit rate 0.19% among 330,000 | S. cerevisiae expressing SARS-CoV PLpro, growth rescue; control for the full effect not named in the record; also: 0% is about no effect; nearly all actives have a fitted effect of over 55% in size; growth read by luminescence after 48 h
Starred values were filed as active, the others as inactive; ? = inconclusive; · = no result given; & = joins results of further samples; [ ] = another dose, or the depositor's remark. Unless noted, calls follow the shape of the dose curve; as a rule, active means well fitted rising curve with a large enough effect; inconclusive means small, poorly fitted or top-dose-only effect; inactive means no such curve, though single readings can be large or run the other way. Potency is read from the fitted curve at half-maximal effect.

SMILES	Lassa entry inh	Cruzain inh Det	Cruzain noTriton	StopGo reporter	NS1 inh	RE007 growth inh	Marburg entry inh	SARS PLP yeast
CN(CCc1ccccc1)c1ccc([N+](=O)[O-])cn1	·	·	·	-21%	-21%	1%	·	-3%
COc1ccc(-n2c(=S)[nH]c3cc(C(=O)NCc4ccc(F)cc4)ccc3c2=O)c(OC)c1	-24%	·	·	-25%	-10%	0%	-24%[46.1 µM]	0%
CC(C)(C)c1cc(NC(=O)Nc2ccc(Cl)cc2Cl)no1	3%	·	·	32%[activator]	-2%	4%	?	-3%
O=C(N/N=C/c1ccc(-c2ccc([N+](=O)[O-])cc2)o1)[C@H]1C[C@@H]1c1ccccc1	?	·	·	15%	-8%	4%	-23%[46.1 µM]	3%
CCOc1ccc(NC(=O)CSc2nc(C)c(C(=O)Nc3ccccc3)c(-c3ccc(Cl)cc3)c2C#N)cc1	·	-4.3%	-21%	-15%	·	·	·	·
CCN(C(=O)COC(=O)c1ccc(S(=O)(=O)N2CCCc3ccccc32)cc1)C1CCS(=O)(=O)C1 (stereo not given)	?	·	·	-3%	·	1%	-28%[46.1 µM]	0%
CCCc1c(C(=O)N/N=C/C(C)=C/c2ccco2)nnn1-c1nonc1N	·	·	·	39%[activator]	18%	2%	·	-3%
Nc1ccc2nc(-c3cccs3)[nH]c2c1	12%	-8.5%	-15%	·	3%	-5%	12%	-28%
O=C(O)C1CCCN1C(=O)Oc1ccccc1 (stereo not given)	0%	-2.1%	0%	0%	2%	23%	3%	12%
O=C(CN1C(=O)NC2(CCCCC2)C1=O)N1CCN(S(=O)(=O)c2ccc(F)cc2)CC1	8%	·	·	-8%	·	-4%	11%	0%
CCOc1ccc(-c2nonc2NC(=O)c2ccco2)cc1	14%[46.1 µM]	-2.1%	-7%	-10%&-5%	-38%	7%	-15%&-15%[46.1 µM]	4%
CCn1c2ccccc2c2cc([N+](=O)[O-])ccc21	-8%	·	·	-14%	·	72%	7%[46.1 µM]	-1%
Cc1ccc(NC(=O)Cn2ncc3ccccc32)c(Cl)c1	·	·	·	52%[activator]	-3%	-3%	·	-2%
O=C(CC1(O)C(=O)N(Cc2ccc3c(c2)OCO3)c2ccccc21)c1ccccc1 (stereo not given)	-14%	-6.6%	-2%	-20%	-10%	-1%	1%	-5%
Cc1cccc(-c2n[nH]c(=S)n2/N=C/C=C/c2ccco2)c1	·	·	·	1%	4%	12%	·	0%
COc1ccccc1C(=O)Nc1ccc(Oc2ncnc3sc(-c4ccccc4)cc23)cc1	15%	2.0%	6.3µM*	10%	1%	-8%	23%	-1%
O=C1c2ccccc2C(=O)N1CCCCSc1nnc2c(Cl)cc(Cl)cn12	-3%	3.6%	1%	0%	-5%	-11%	-14%	2%
O=C(Cn1cnc(S(=O)(=O)N2CCCC2)c1)Nc1ccccc1	19%&-14%[46.1 µM]	4.0%	1%	3%&0%	0%	1%	19%&19%[46.1 µM]	0%
CC(C)(C)C(=O)Nc1c2c(nc3c1CCC3)CCCC2	-9%	-2.6%	-13%	-19%	9%	0%	-2%	-2%
CCN1C(=O)/C(=C\c2ccncc2)SC1=S	·	·	·	-12%	-38%	-18%	·	-1%
O=C1CN(S(=O)(=O)c2ccc(F)cc2)CC(=O)N1CCc1ccccc1	·	-0.4%	5%	·	4%	·	5%	1%
Cc1cccn2c(=O)nc(SCC(=O)N3CCCCC3)nc12	0%	·	·	8%	·	-4%	17%[46.1 µM]	8%
CCOCCCNS(=O)(=O)c1ccc2c(c1)OCCO2	-7%	6.1%	6%	24%	-7%	-9%	8%	3%
Cc1ccc(NC2CC(=O)N(c3ccc(C)cc3)C2=O)cc1 (stereo not given)	0%	7.1%	?	39%[activator]	-3%	-11%	7%	-7%
CCOCc1c(C(=O)OCC(=O)Nc2ccc(C)c(S(=O)(=O)N(C)C)c2)oc2ccccc12	-6%	-5.2%	27%	?	-3%	7%	?	-30%
Cc1nn2c(=O)cc(COC(=O)c3ccc(NC(=O)COc4ccccc4F)cc3)nc2s1	2%[46.1 µM]	-2.7%	5%	10µM*	·	·	·	·
COc1ccc(S(=O)(=O)N2CCCCC2)cc1NC(=O)CCNC(=O)c1ccco1	4%	·	·	8%	·	-7%	7%	-5%
Cc1ccc(Sc2c(C)nn(C(C)(C)C)c2OC(=O)CC(C)C)cc1	6%[46.1 µM]	-9.9%	-3%	?	·	·	-2%[46.1 µM]	·
CCOC(=O)c1cccc(NC(=O)CN2CCN(c3ccc(OC)cc3)CC2)c1	1.1µM*	-4.4%	7%	-23%	-22%	-1%	-12%	?
COc1cc(SC)ccc1C(=O)OC(C)C(=O)NC1CCCC1 (stereo not given)	?	·	·	-11%	16%	1%	12%[46.1 µM]	-1%

Ordered by molar mass (rising): some entries from above.
SMILES	Lassa entry inh	Cruzain inh Det	Cruzain noTriton	StopGo reporter	NS1 inh	RE007 growth inh	Marburg entry inh	SARS PLP yeast
Cc1ccc(NC2CC(=O)N(c3ccc(C)cc3)C2=O)cc1 (stereo not given)	0%	7.1%	?	39%[activator]	-3%	-11%	7%	-7%
CCOCCCNS(=O)(=O)c1ccc2c(c1)OCCO2	-7%	6.1%	6%	24%	-7%	-9%	8%	3%
Cc1cccn2c(=O)nc(SCC(=O)N3CCCCC3)nc12	0%	·	·	8%	·	-4%	17%[46.1 µM]	8%
COc1cc(SC)ccc1C(=O)OC(C)C(=O)NC1CCCC1 (stereo not given)	?	·	·	-11%	16%	1%	12%[46.1 µM]	-1%
Cc1ccc(Sc2c(C)nn(C(C)(C)C)c2OC(=O)CC(C)C)cc1	6%[46.1 µM]	-9.9%	-3%	?	·	·	-2%[46.1 µM]	·
COc1ccc(S(=O)(=O)N2CCCCC2)cc1NC(=O)CCNC(=O)c1ccco1	4%	·	·	8%	·	-7%	7%	-5%
COc1ccccc1C(=O)Nc1ccc(Oc2ncnc3sc(-c4ccccc4)cc23)cc1	15%	2.0%	6.3µM*	10%	1%	-8%	23%	-1%
Cc1nn2c(=O)cc(COC(=O)c3ccc(NC(=O)COc4ccccc4F)cc3)nc2s1	2%[46.1 µM]	-2.7%	5%	10µM*	·	·	·	·
CCOCc1c(C(=O)OCC(=O)Nc2ccc(C)c(S(=O)(=O)N(C)C)c2)oc2ccccc12	-6%	-5.2%	27%	?	-3%	7%	?	-30%

New compounds follow.
SMILES	Lassa entry inh	Cruzain inh Det	Cruzain noTriton	StopGo reporter	NS1 inh	RE007 growth inh	Marburg entry inh	SARS PLP yeast
COc1ccccc1Cc1noc(-c2cc(Cl)ccc2OC)n1	-17%	-7.6%	8%	10%	-2%	3%	3%	0%
c1ccc2c(CN3CCOCC3)c[nH]c2c1	·	·	·	-8%	13%	-3%	·	2%
O=C(CN(C(=O)c1ccccc1)N1C(=O)CCC1=O)c1cccs1	4%	·	·	6%	-3%	7%	4%	-6%
COc1ccc(C2NCCc3cc(OC)c(OC)cc32)cc1OC (stereo not given)	6%	6.2%	-3%	-8%	3%	-11%	?	0%
O=c1n(S(=O)(=O)c2cccc3cccnc23)c2ccccc2n1S(=O)(=O)c1cccc2cccnc12	-26%	7.1%	?	18%	14%	2%	?	-3%
O=C(NC(=S)N1CCN(C/C=C/c2ccccc2)CC1)c1cccnc1	?	·	·	-15%	2%	-17%	-11%	0%
Cc1cccn2cc(CCNC(=O)c3cccs3)nc12	0%	·	·	33%[activator]	2%	-18%	17%	0%
Cc1cc(NC(=O)CSC2=NS(=O)(=O)c3cc(Cl)ccc3N2)no1	-27%	·	·	-16%	·	-9%	-8%	-4%
COc1ccccc1-c1cc2nc(C)c(CCC(=O)NCc3cccc(Cl)c3)c(C)n2n1	?	-9.4%	?	?	·	·	?	·
CCOC(=O)c1c(-c2cccs2)csc1NC(=O)CC(C)C	-16%	-2.3%	-4%	-7%	-45%	-5%	-14%	-22%
O=c1onc(-c2ccccc2)n1-c1cc(Cl)cc(Cl)c1	-30%[46.1 µM]	·	·	-16%	·	-22%	-6%[46.1 µM]	·
Cc1ccc(C(=O)Nc2oc(-c3ccccc3)cc2C#N)cc1	2%	2.0%	?	-6%	1%	-1%	?	·
COc1cc2nc(N3CCNCC3)nc(N)c2cc1OC	4%	-11%	5%	9%	6%	-5%[3.69 µM]	?	-2%
CCC(=O)c1cn(CC(=O)O)c2ccccc12	4%	·	·	-13%	2%	32%	6%[46.1 µM]	1%
COCCN(C(=O)CSc1nnc(-c2ccc(C)cc2)n1N)c1c(N)n(Cc2ccccc2)c(=O)[nH]c1=O	16%	·	·	-9%	4%	2%	?	-3%
CN(C(=O)Oc1ccc(F)cc1)c1ccccc1	11%	·	·	20%	13%	12%	?	1%
CSCCC(Nc1ccc(S(=O)(=O)N2CCOCC2)cc1[N+](=O)[O-])C(=O)OCC(=O)NCC(C)C (stereo not given)	2%	-1.0%	?	9%	-8%	-12%	2%	13%
COC(=O)c1cc(S(=O)(=O)NCc2cccs2)c[nH]1	·	·	·	49%[activator]	-11%	-25%	·	1%
COC(=O)c1ccc(OC)c(Cn2c(=O)n(C)c(=O)c3sccc32)c1	·	·	·	4%	17%	-5%	·	-7%
COc1ccc(CCN2C(=O)C(O)=C(C(C)=O)C2c2ccccc2OC)cc1OC (stereo not given)	1%	1.5%	-12%	·	-1%	-6%	17%	-7%
CCOc1ccc(C2OC(=O)Cc3cc(OC)c(OC)cc32)cc1 (stereo not given)	-2%	0.9%	-3%	·	4%	6%	-9%	1%
O=C(CSc1nnc(NC(=O)c2ccccc2F)s1)NCc1ccco1	?	·	·	-9%	11%	-8%	-25%	2%
